# CBX7 inh: blocks human CBX7 binding to H3K27me3 peptide. AlphaScreen His6-CBX7 / biotin-H3K27me3 peptide binding; stronger effect = lower value. normalised signal (fraction of DMSO) (concentration not given with the values). 66,000 tested, 1.1% active; in the data active means normalised signal below about 0.5;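 further: 100 nL library stock added to about 20 µL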
# Target sequence (O95931 whole entry, looked up): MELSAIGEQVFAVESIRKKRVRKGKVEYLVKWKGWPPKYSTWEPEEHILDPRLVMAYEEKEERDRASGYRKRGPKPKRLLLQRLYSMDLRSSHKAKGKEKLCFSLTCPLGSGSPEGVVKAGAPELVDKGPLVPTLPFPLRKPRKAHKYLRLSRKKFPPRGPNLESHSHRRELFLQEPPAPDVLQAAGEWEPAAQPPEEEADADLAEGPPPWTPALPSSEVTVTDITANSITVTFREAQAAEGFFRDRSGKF
# CBX7 inh z-score: second read-out of CBX7 inh, no call of its own (marks repeat the call); z-score; measured here: z-score of CBX7 signal; some inactives read as strong as hits; reference of the scale not given here;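 same signal on another scale; lower means less binding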
# The depositor's hits bear a star; & = joins results of further samples. A portion of the library (hit frequency here may not be typical).
# Every second line gives: CBX7 inh, CBX7 inh z-score
- COc1ccc(-c2nc(C(=O)O)c(C)o2)cc1
    1.1, 0.76
- Cc1ccc2oc(-c3cccc(NC(=O)c4ccc(C)c(Cl)c4)c3)nc2c1
    1.2, 1.5
- CCc1ccc2oc(-c3cc(NC(=O)COc4ccccc4C)ccc3Cl)nc2c1
    1, 0.064
- Cc1ccc(Nc2cc(C)nc(-c3ccccc3O)n2)cc1
    1.1, 2.8
- O=C(CCn1nc(-c2ccccc2)ccc1=O)NCc1ccccn1
    0.94, -1.7
- O=C(Cc1cccc(C(F)(F)F)c1)N1CCNc2ccccc2C1
    1, 0.23
- Cc1c(C(=O)NC2CCC(C)CC2)oc2ccc(S(=O)(=O)N3CCCCC3)cc12 (stereo not drawn)
    0.93, -1.6
- O=C(NCC1CCCO1)C(=O)Nc1ccccc1 (stereo not drawn)
    0.97, -0.73
- CC(C)Oc1ccc(C(=O)Nc2nc(-c3ccc(Cl)cc3Cl)cs2)cc1
    1, 0.04
- Cc1nc2c(-c3ccccc3)c(C)nn2c(C)c1CCC(=O)NCCN1CCN(C)CC1
    1.1, 1.5
- CCOC(=O)N1CCN(C(=O)C2CCN(C(=O)c3cc4sccc4n3C)CC2)CC1
    0.98, -0.28
- Cc1ccc2c(c1)NC(=O)C(CC(=O)NCCN1CCN(c3cc(Cl)ccc3C)CC1)O2 (stereo not drawn)
    1, 0.53
- O=C(NCc1ccccc1)C1CCN(S(=O)(=O)c2cnc[nH]2)CC1
    1, 0.43
- CCCCCCNC(=O)c1c[nH]c2ccc(S(=O)(=O)N(C)c3ccc(CC)cc3)cc2c1=O
    0.91, -0.81
- CCc1ccc(-n2c(C)nc3c(cnn3-c3ccc(F)cc3)c2=O)cc1
    1, 0.23
- O=C(NCc1ccc2c(c1)OCO2)c1cnn2c(C(F)(F)F)cc(-c3ccccc3)nc12
    0.98, -1.1
- COc1ccc(-c2nc(Nc3ccc(C)c(F)c3)c3ccccc3n2)cc1OC
    1.1, 3.3
- CCN(CCN(C)C)C(=O)c1cc2c(s1)-c1c(C)cccc1OC2
    1.1, 3.1
- Cc1ccc(-c2nnc(Nc3ccc4c(c3)OCO4)c3ccccc23)cc1
    0.55, -5.1
- COc1ccc(N2Cc3cccc(C(=O)Nc4ccccc4OC)c3C2=O)cc1
    0.96, -1.2
- CCOc1ccc(CCNC(=O)CN2C(=O)c3ccccc3C2=O)cc1OCC
    1.1, 1.2
- CCCCNC(=O)c1c[nH]c2ccc(S(=O)(=O)Nc3ccc(OCC)cc3)cc2c1=O
    1.4, 1.8
- CC(C)(C)OC(=O)N1CCC(c2c(C(=O)NCc3ccc(F)cc3)cnn2-c2ccccc2)CC1
    0.82, -2.6
- Brc1ccc(-c2csc(N3CCN(C(c4ccccc4)c4ccccc4)CC3)n2)cc1
    1.1, 2.2
- CCc1ccc(NC(=O)N(CCC(C)C)C2CCN(C(C)C)CC2)cc1
    1.1, 3.4
- Clc1ccc(Nc2c(-c3c[nH]c4ccccc34)nc3cnccn23)cc1
    1, 2
- CC(C)NC(=O)c1ccc2c(c1)N(Cc1c(F)cccc1Cl)C(=O)CS2
    1.1, 0.25
- Cc1cc(C(F)(F)F)nc(Nc2nc3ccccc3s2)n1
    0.99, -0.31
- Cc1cccc(N2CCN(C(=O)C3CCN(S(=O)(=O)c4cccnc4)CC3)CC2C)c1 (stereo not drawn)
    0.96, -1.2
- COc1ccc(NC(=O)C2(S(=O)(=O)c3ccc(Cl)cc3)CC2)cc1OC
    0.97, -0.89

# Part of the list above, set out differently:
Molecule: O=C(CCn1nc(-c2ccccc2)ccc1=O)NCc1ccccn1
  CBX7 inh: 0.94	CBX7 inh z-score: -1.7
Molecule: O=C(Cc1cccc(C(F)(F)F)c1)N1CCNc2ccccc2C1
  CBX7 inh: 1	CBX7 inh z-score: 0.23
Molecule: Cc1c(C(=O)NC2CCC(C)CC2)oc2ccc(S(=O)(=O)N3CCCCC3)cc12 (stereo not drawn)
  CBX7 inh: 0.93	CBX7 inh z-score: -1.6

# The listing picks up with the 2 entries that preceded the break.
# Every second line gives: CBX7 inh, CBX7 inh z-score
- Cc1cccc(N2CCN(C(=O)C3CCN(S(=O)(=O)c4cccnc4)CC3)CC2C)c1 (stereo not drawn)
    0.96, -1.2
- COc1ccc(NC(=O)C2(S(=O)(=O)c3ccc(Cl)cc3)CC2)cc1OC
    0.97, -0.89
- Cc1ccc(Nc2c(-c3cccc(Br)c3)nc3ccc(Cl)cn23)cc1
    0.99, -0.46
- O=C(Cn1cnc2sc3c(c2c1=O)CCCC3)NCC(=O)Nc1c(F)cccc1F
    0.99, -0.42
- CC(C)n1c(C(O)c2cccc3ccccc23)nc2ccccc21 (stereo not drawn)
    0.97&0.92, -0.71&-2.5
- O=C1CCc2cc(S(=O)(=O)NC(Cc3ccccc3)C(=O)Nc3ccccc3F)ccc2N1 (stereo not drawn)
    1, 0.16
- CN1CC(=O)NC1=NC(=O)c1cc2sc(Cl)cc2n1C
    1, 0.078
- O=C(Nc1ccc(F)cc1F)N1CCN(C/C=C/c2ccccc2)CC1
    1.4, 4.3
- CCOc1ccc(NC(=O)c2cnn(-c3ccccc3)c2NC(=O)c2cccc(F)c2)cc1
    1, 0.38
- Cc1cc(=O)n2nc(N3CCC(C(=O)Nc4cc(C(F)(F)F)ccc4Cl)CC3)sc2n1
    1.2, 1.7
- CC1CCc2nc3sc4c(c3c(N)c2C1)CCCC4 (stereo not drawn)
    0.9, -1.1
- COC(=O)c1ccc2c(c1)N(Cc1ccc(Cl)cc1)C(=O)c1ccccc1S2=O (stereo not drawn)
    1, 0.73
- Cc1ccc(S(=O)(=O)c2nc(-c3ccccc3)oc2SCC(=O)Nc2ccc(F)cc2)cc1
    0.94, -0.29
- Cc1ccc(-c2cc(C(=O)Nc3cc(C)on3)c3ccccc3n2)cc1
    1, 0.26
- CCOC(=O)c1c(NC(=O)c2onc(C)c2Cl)sc(C)c1C
    1, 0.45
- COc1ccc(Br)cc1CNC(=O)CN1C(=O)CSc2ccccc21
    0.91, -2.6
- CCOc1ccc(NC(=O)c2cc3c(s2)-c2ccccc2OC3)cc1
    1.1, 4.3
- Cc1ccc(CNC(=O)c2csc3c2CCCC3)cc1
    1.1, 3.6
- COc1cc(-c2ncnn2-c2ccc(Cl)c(C)c2)ccc1OCc1ccccc1
    1.1, 2.4
- COc1ccc(-c2nc3ccccc3o2)cc1NC(=O)COc1c(C)cc(Cl)cc1Cl
    1.1, 0.99
- OCc1cn(-c2ccccc2)nc1-c1ccc(Cl)cc1
    0.97, -0.5
- O=C1Nc2ccccc2OC1CC(=O)N1CCN(c2ccccc2)CC1 (stereo not drawn)
    0.97, -0.17
- Cc1ccc(-c2nc3nc[nH]c(=O)c3nc2-c2ccc(C)cc2)cc1
    1, 0.69
- O=C(CSc1nc2ccc(N3C(=O)c4ccccc4C3=O)cc2s1)Nc1ccc(Br)cc1
    1, -0.091
- COc1ccc(-n2c3c(cc(C(=O)NCc4ccccc4)c2=O)C(=O)CC(C)(C)C3)cc1
    0.94, -1.2
- O=C1CCCc2c1cc(C(=O)NCCO)c(=O)n2-c1ccc(Cl)cc1
    1.2, 0.81
- COc1ccc(S(=O)(=O)NCCc2c(C)[nH]c3ccc(F)cc23)cc1C
    1.1, 1.3
- CN1CCN(C(=O)c2ccc3c(=O)n(CCc4ccccc4)c(=O)[nH]c3c2)CC1
    1, 1.1
- O=C(NC1CCCCCC1)C1c2ccccc2C(=O)N1CCCN1CCCC1 (stereo not drawn)
    1, 0.2
- CC1CCN(c2nc(-c3ccccc3)c(C#N)c(=O)[nH]2)CC1
    1.1, 3
- CCOc1ccc(NC(=O)c2c(NCc3sccc3C)sc3c2CCCCC3)cc1
    0.65, -4.9
- Cc1ccc2c(c1)-c1c(cnn1CC(=O)N(C)c1ccccc1C)CO2
    1, 0.84

# Quoted from the listing.
# Reading for CCc1ccc2oc(-c3cc(NC(=O)COc4ccccc4C)ccc3Cl)nc2c1 in CBX7 inh z-score: 0.064
# Reading for COc1ccc(-n2c3c(cc(C(=O)NCc4ccccc4)c2=O)C(=O)CC(C)(C)C3)cc1 in CBX7 inh z-score: -1.2
# Reading for O=C(Cc1cccc(C(F)(F)F)c1)N1CCNc2ccccc2C1 in CBX7 inh: 1

# Further results follow.
# Every second line gives: CBX7 inh, CBX7 inh z-score
- CCCCCCCNC1CC(=O)N(c2ccc(Cl)cc2)C1=O (stereo not drawn)
    1.1, 0.059
- Cc1cccc(NC(=O)C(Cc2ccccc2)N2C(=O)c3ccccc3C2=O)c1 (stereo not drawn)
    1, 0.0027
- COc1ccc(OC)c2[nH]c(=O)c(CCNC(=O)COc3ccc4ccccc4c3)cc12
    0.94, -2.7
- CCN(c1ccccc1)S(=O)(=O)c1ccc(C(=O)Nc2nnc(C)o2)cc1
    0.052*, -25*
- O=C(CN1C(=O)CSc2ncccc21)NC1CCCCCC1
    1, 0.25
- COc1ccc(-n2ccnc2SCC(=O)Nc2ccccc2)cc1
    1.1, 0.96
- O=C(Nc1nc2ccccc2s1)c1ccc2c(=O)n3c(nc2c1)CCCCC3
    1, 1.6
- Cc1nnc(Sc2cc(C(=O)NCCCN3CC(C)CC(C)C3)c3ccccc3n2)s1 (stereo not drawn)
    1.1, 1.2
- Cc1ccc(C)c(Cn2c(C(C)NC(=O)c3cccs3)nc3ccccc32)c1 (stereo not drawn)
    0.99, -0.36
- COc1ccc(Nc2c(-c3ccc(C)cc3)nc3cnccn23)cc1
    0.83, -2.1
- N#Cc1nc(COc2ccccc2F)oc1NCc1cccnc1
    0.82, -3.2
- O=C(CN1C(=O)CC(c2ccccc2)Sc2ccccc21)NCc1ccccc1 (stereo not drawn)
    0.92, -1.4
- C=C(C)Cn1c(CCNC(=O)c2cccc(C)c2)nc2ccccc21
    0.99, -0.3
- O=C(NCC1(c2ccccc2)CCOCC1)c1ccccc1C(=O)c1ccccc1
    0.82, -1.1
- CCC1Sc2ccccc2N(CC(=O)NCCc2ccc(C)cc2)C1=O (stereo not drawn)
    1, 0.58
- Cc1ccc(C)c(CSc2nc3ccncc3n2CC(=O)Nc2ccc(Cl)cc2F)c1
    1, 0.44
- CC1CCN(c2nc3ccc(C(=O)N4CCN(c5ccc(Cl)cc5)CC4)cc3s2)CC1
    1, 0.33
- COc1ccccc1-n1nc(C(=O)Nc2ccc(F)c(Cl)c2)c2ccccc2c1=O
    1, 0.49
- CCOc1ccc(NC(=O)c2sccc2-n2cccc2)cc1
    0.57, -12
- O=C(CN1N=C(c2ccccc2)CCC1=O)NCCCN1CCC(Cc2ccccc2)CC1
    1.1, 2.3
- Cc1cc(Nc2cccc(Cl)c2C)n2nc(C)nc2n1
    1, 0.44
- Brc1c(CSc2nc3ccccc3[nH]2)nc2sccn12
    1, 0.43
- COc1ccc(C(=O)N2CCN(c3ccc4nnc(-c5ccc(F)cc5)n4n3)CC2)cc1OC
    0.98, -0.37
- Cc1ccc(NS(=O)(=O)c2ccc3c(c2)CCN3C(=O)C2CCC2)c(C)c1
    0.91, -2.4
- CCOc1ccccc1NC(=O)c1c(NC(=O)c2cccc(C)c2)sc2c1CCC2
    1.2, 7.1
- COc1ccc(OC2C(=O)N(CCc3ccc(OC)c(OC)c3)C2c2ccc3c(c2)OCO3)cc1 (stereo not drawn)
    0.92, -2.2
- CCOC(=O)c1cnc2c(C)c(Cl)ccc2c1Nc1ccccc1OCC
    1.1, 0.32
- Cc1nc2nc(SCC(=O)NCc3ccccc3)nn2c(C)c1Cc1ccccc1F
    0.76, -0.51
- CCCCn1c(CN2CCN(Cc3ccccc3)CC2)nc2c1c(=O)[nH]c(=O)n2C
    1, 1.2
- COc1ccc(Cl)cc1NC(=O)c1cn(-c2ccc(C)c(C)c2)c(=O)c2ccccc12
    1, 0.012
- CC1CCC(NC(=O)c2ccc3c(c2)NC(=O)c2ccccc2N3)CC1 (stereo not drawn)
    1.1, 0.43
- CCn1c(=O)cc(OCC(=O)N(C)c2cccc(Cl)c2)c2ccccc21
    0.95, -0.85
- COc1ccc(OCC(=O)Nc2c(C(=O)c3ccc(OC)cc3)oc3ccccc23)cc1
    0.97, -0.52
- COc1ccc(-c2nc3ccccc3n2Cc2ccccc2)cc1OC
    1, 0.5
- COc1ccc(NC(=O)CNC(=O)Cn2c(C)cc3ccccc3c2=O)cc1OC
    1, 0.057
- CCOC(=O)c1c(NC(=O)COc2ccc(Cl)cc2C)sc2c1CCC(C)C2 (stereo not drawn)
    1.1, 0.19
- CCOc1ccc(C2NCCc3cc(OCC)c(OCC)cc32)cc1 (stereo not drawn)
    1, 0.07
- COc1ccc(S(=O)(=O)NCCc2cc3ccc(OC)cc3[nH]c2=O)cc1
    0.97, -0.2
- CCCCc1ccc(-c2nc(Nc3ccc(Br)cc3C)c3ccccc3n2)cc1
    1.3, 8
- N#Cc1nc(COc2ccc(Br)cc2)oc1NCCN1CCOCC1
    0.99, -0.32
- CCOC(=O)N1CCN(C(=O)c2csc3c2CCCCC3)CC1
    1.1, 1.7
- Cc1cccc(CCNC(=O)c2cn(C3CCCC3)c(=O)c3c2c2ccccc2n3C)c1
    1, 0.86
- Cc1ccc(-n2ncc3c(NCCc4ccc(Cl)cc4)ncnc32)c(C)c1
    1, 0.6
- COCCNC(=O)Cn1ncc2ccsc2c1=O
    0.98, -0.27
- CC(=O)N1CCc2cc(S(=O)(=O)N3CCN(c4cccc(Cl)c4)CC3)ccc21
    1, 0.98
- CCC(=O)N1CCc2cc(S(=O)(=O)NCC3CCCN3CC)ccc21 (stereo not drawn)
    1.1, 2.2
- Cc1cccc(NC(=O)CN2C(=O)C(CC(=O)Nc3ccc(F)cc3)Nc3ccccc32)c1 (stereo not drawn)
    0.98, -0.72
- CCOc1ccc2nc(NC(=O)CC3Oc4ccccc4NC3=O)sc2c1 (stereo not drawn)
    0.99, -0.11
- Nc1nnc(CCCn2c(-c3nonc3N)nc3ccccc32)s1
    1, -0.072
- COc1ccccc1NC(=O)Nc1ccc(C)cn1
    0.66, -2.2
- Cc1ccc(OCC(O)CN2CCn3c4c(c5cc(C)ccc53)CCCC42)cc1 (stereo not drawn)
    0.98, -0.059
- Cc1ccc(NC(=O)CN2C(=O)COc3ccc(S(=O)(=O)N4CCOCC4)cc32)c(Cl)c1
    1.1, 3.5

# High-throughput results: PubChem, several laboratories
